Source: PubChem
TAR Tat displ = HIV-1 TAR-Tat binding disruption; HIV-1 TAR RNA, Tat peptide displacement FRET; hits give high values; z-score (concentration not given with the values); 100,000 compounds, 0.6% hits; AID 1259389;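 further: score is relative to mean and SD of negative controls; some compounds called inactive have numbers as strong as hits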
CDC25B-CDK2 inh = human CDC25B-CDK2/CyclinA binding inhibition; 94,000 compounds, 0.72% hits; z-score (test concentration not listed); P30305+P24941; HTRF CDC25B-CDK2/CyclinA binding, anti-His/anti-Flag; hits give high values;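 further: score is relative to mean and SD of negative controls; strong numbers were not always called active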
Starred values were filed as active, the others as inactive; x = no result given.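 How the source made its calls: active means z-score from 3 up in half or more of its runs; inactive means the rest.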

Values in the order – TAR Tat displ, CDC25B-CDK2 inh
1) O=S(=O)(c1ccccc1Oc1ccc(Cl)cc1Cl)N1CCCCC1
    x, -0.66
2) Oc1ccccc1-c1n[nH]c(/C=C/c2ccccc2)n1
    1.4, 0.79
3) NC(N)=NS(=O)(=O)c1ccc(Cl)c(Cl)c1
    x, 0.22
4) CCN(CC)c1ccc2c(c1)OC(N)=C(C#N)C2c1cccc(Cl)c1 (stereo not drawn)
    -7.7, -4
5) COCCCNc1nc(NCc2ccccc2Cl)c2cnn(C)c2n1
    1.5, x
6) Cc1ccc(Cn2ccc(NC(=O)c3cc4n(n3)C(C(F)(F)F)CC(c3ccco3)N4)n2)cc1 (stereo not drawn)
    3.1, -0.76
7) O=C(CCCCCn1c(=O)[nH]c2ccsc2c1=O)N1CCN(c2ccccc2)CC1
    1.3, -0.83
8) Cc1cc(C)nc(-n2nc(C)c3c2NC(=O)CC3c2ccccc2C)n1 (stereo not drawn)
    -0.3, -1.9
9) Cn1c(=O)c2c(-c3cccc(Br)c3)n(CC(=O)c3ccccc3)cc2n(C)c1=O
    -7.9, 0.49
10) COc1ccc(C2Nc3ccc(C)cc3-c3cc(C)nn32)cc1 (stereo not drawn)
    1.7, 0.48
11) COc1ccc(SCc2cc(=O)n3nc(-c4ccccc4)sc3n2)cc1
    -1.1, -2.7
12) Cc1ccc(S(=O)(=O)OC[C@H]2O[C@@H](n3cnc4c(=O)[nH]c(NC(=O)C(C)C)nc43)CC2O)cc1 (stereo partly drawn)
    x, 1.8
13) O=C1CCC(=O)N1CC(=O)N1c2ccccc2Sc2ccccc21
    0.66, -0.27
14) Cc1ccc(N2CCn3c2nc2c3c(=O)n(CC(=O)O)c(=O)n2C)cc1
    1.1, -0.77
15) CC(C)CN(CCS(=O)(=O)N1CCNCC1)S(=O)(=O)c1ccc(F)cc1
    1.4, x
16) O=C(NC1CCCc2ccccc21)C1CCCN(S(=O)(=O)c2ccc(Cl)cc2)C1 (stereo not drawn)
    0.24, -1.3
17) CC(C)CCNC(=O)C1CCC(Cn2c(=O)c3sccc3n(C)c2=O)CC1 (stereo not drawn)
    -0.35, x
18) O=c1[nH]cc(N2CCOCC2)c(=O)[nH]1
    1.2, 1.1
19) O=C(NCc1ccccc1)N1CC2C=CC1C2 (stereo not drawn)
    0.8, 1.6
20) S=C(NCCc1ccccc1)N/N=C/c1cccs1
    x, 0.52
21) CCCn1c(=O)c2sccc2n2c(CCCC(=O)NC3CCCCC3C)nnc12 (stereo not drawn)
    0.61, x
22) COc1ccc(-c2n[nH]c(=O)c(Cc3ccc4c(c3)OCO4)n2)cc1
    1.6, x
23) CCCCN(CC)C(=O)Cn1ncc2c(=O)oc3ccc(C)cc3c21
    -0.29, -1.4
24) COc1ccc(CS/C(N)=N/N)cc1
    x, -3.1
25) CC(C)OC(=O)c1nnn(-c2nonc2N)c1CN1CCc2ccccc2C1
    x, -0.22
26) Cc1ccsc1CCNC(=O)CCc1nnc2ccc(NCc3ccco3)nn12
    1.3, x
27) Cc1cccn2c(=O)c(C(=O)NCCCN3CCCCC3C)c(O)nc12 (stereo not drawn)
    3.1, 0.08
28) O=C(Nc1ccc2c(c1)OCCO2)c1ccccc1
    x, -8.4
29) CC(C)NC(=O)CSc1cn(CC(=O)N2CCOCC2)c2ccccc12
    1.4, x
30) COc1cccc(CNc2cnc3ccccc3c2)c1O
    0.19, -2.3

Excerpt, entries 1 to 2
Values in the order – TAR Tat displ, CDC25B-CDK2 inh
1) O=S(=O)(c1ccccc1Oc1ccc(Cl)cc1Cl)N1CCCCC1
    x, -0.66
2) Oc1ccccc1-c1n[nH]c(/C=C/c2ccccc2)n1
    1.4, 0.79

Returning to the listing, starting seven compounds before the break.
Values in the order – TAR Tat displ, CDC25B-CDK2 inh
24) COc1ccc(CS/C(N)=N/N)cc1
    x, -3.1
25) CC(C)OC(=O)c1nnn(-c2nonc2N)c1CN1CCc2ccccc2C1
    x, -0.22
26) Cc1ccsc1CCNC(=O)CCc1nnc2ccc(NCc3ccco3)nn12
    1.3, x
27) Cc1cccn2c(=O)c(C(=O)NCCCN3CCCCC3C)c(O)nc12 (stereo not drawn)
    3.1, 0.08
28) O=C(Nc1ccc2c(c1)OCCO2)c1ccccc1
    x, -8.4
29) CC(C)NC(=O)CSc1cn(CC(=O)N2CCOCC2)c2ccccc12
    1.4, x
30) COc1cccc(CNc2cnc3ccccc3c2)c1O
    0.19, -2.3
31) Cc1cc(CNCC(O)C(F)(F)F)no1 (stereo not drawn)
    x, -3.1
32) NC(=O)CSc1nnc(-c2ccccc2)c(-c2ccccc2)n1
    0.14, x
33) O=C1c2ccncc2C(=O)N1Cc1cccc(Cl)c1
    0.77, x
34) CN1C(=O)CCc2cc(NC(=O)CCC3CCCC3)ccc21
    1.4, x
35) Cc1cc(C)c(-c2c(NCCC3=CCCCC3)c(=O)c2=O)cc1C
    -0.29, x
36) Cn1cccc1-c1cc2n(n1)CCCN2C(=O)NCc1ccc(F)cc1
    0.58, x
37) Cc1cccc(S(=O)(=O)NCc2cn3ccsc3n2)c1
    x, -1.6
38) O=C(Nc1ccc(N2CCOCC2)nc1)C1CC(=O)N(Cc2ccco2)C1 (stereo not drawn)
    x, -1.1
39) CC1CCN(S(=O)(=O)c2ccc3c(c2)oc(=O)n3CC(=O)NC2CCCc3ccccc32)CC1 (stereo not drawn)
    1.5, -0.96
40) O=C(CN1C(=O)CSc2ncccc21)Nc1ccc(Cl)cc1
    -5.4, 1.4

Values in list order from the list.
Nos. 34–39 in TAR Tat displ: 1.4, -0.29, 0.58, x, x, 1.5

(cont.)
Values in the order – TAR Tat displ, CDC25B-CDK2 inh
41) CC(C)CC(=O)N(c1ccc(C(C)C)cc1)C1C=CS(=O)(=O)C1 (stereo not drawn)
    0.95, -2.1
42) Oc1c(Cl)c2nc3ccccc3nc2c2ccccc12
    x, -1.1
43) CCCNS(=O)(=O)c1cc(-c2nnc3c4ccccc4c(C)nn23)ccc1OC
    -0.04, -0.86
44) Cc1ccc(Nc2c(-c3ccc4c(c3)CCCC4)c(=O)c2=O)cc1C
    1.6, x
45) CC1=NC2c3c(oc(C(=O)NCc4ccccc4)c3C)CCC2S1 (stereo not drawn)
    0.16, x
46) Cc1ccc(Nc2nc3nonc3nc2N(C)C)cc1
    -0.14, -1.7
47) COc1ccc(NC(=O)[C@H](CCSC)N2Cc3ccccc3C2=O)cc1OC
    0.62, -1.6
48) Cc1cc(NS(=O)(=O)c2cn(C)cn2)no1
    -0.53, x
49) C=Cc1ccc(Cn2c(C(=O)OC)c(NC(C)=O)c3c(C)c(C)sc32)cc1
    -0.1, 1.7
50) CCOC(=O)C1CCCN(c2c(NCCCN3CCCC3)c(=O)c2=O)C1 (stereo not drawn)
    0.58, -0.63
51) N#Cc1cc(Cl)ccc1Nc1ncnc(N)n1
    x, -2
52) O=C(COCc1cc(-c2cccs2)on1)Nc1ccc(Br)cc1F
    -0.06, x
53) Fc1ccc(NC(=S)Nc2cccc3c(NC(=S)Nc4ccc(F)cc4)cccc23)cc1
    x, 18*
54) COc1ccc(SCCc2nnc(-c3ccccc3)o2)cc1
    x, -0.29
55) COc1ccc(C2CC(=O)Nc3c2cc(Br)c2ccccc32)cc1O (stereo not drawn)
    1, -2.5
56) N#Cc1nc(/C=C/c2ccc(F)cc2)oc1N1CCN(C(=O)c2cccc(F)c2)CC1
    -1.2, 0.41
57) COC(=O)c1ccc(N2CSC3=C(C#N)C(c4ccc(F)cc4)CC(=O)N3C2)cc1 (stereo not drawn)
    -0.31, 6.6*
58) COc1ccccc1Cc1nnc(-c2ccccc2Cl)o1
    0.38, -0.56
59) O=C(CC1(O)C(=O)N(Cc2ccccc2)c2ccc(Br)cc21)c1ccncc1 (stereo not drawn)
    0.78, -1.4
60) CSc1nc(-c2cccc(Cl)c2)nc2c1Cc1c(CO)cnc(C)c1O2
    -1.9, x
61) NC1=C(c2ccccc2)CC(=O)c2ccccc21
    x, -1.8
62) CC(C)(C)NC(=O)CSc1nc2c(cc1C#N)C(=O)CCC2
    0.06, -0.67
63) Cc1ccc(C2C(C#N)=C(N)Oc3n[nH]c(C)c32)o1 (stereo not drawn)
    1.5, -2.1
64) NS(=O)(=O)c1cc(C(=O)O)ccc1F
    2.3, x
65) O=C(NCc1ccc(F)cc1F)Nc1cnccc1C(F)(F)F
    x, -1.1
66) CCNc1nc(NC(C)C)nc(N2CCCC2)n1
    x, -0.15
67) Cc1ccc(-c2onc(C)c2C)cc1S(=O)(=O)N1CCC(N2CCCCC2)CC1
    3.1, x
68) NC1CCc2c(c3ccccc3n2Cc2ccc(C(=O)NO)cc2)C1 (stereo not drawn)
    -1.2, x
69) CS/C(NCc1ccco1)=C(/C#N)S(=O)(=O)c1ccc(Cl)cc1
    x, -1.6
70) CN(Cc1cc(Br)cc(Br)c1N)C1CCCCC1
    0.31, x

The listing continues:
item | molecule | TAR Tat displ | CDC25B-CDK2 inh
71 | Cc1ccc(C2=CC(c3ccc(Br)cc3)n3ncnc3N2)cc1 (stereo not drawn) | -5.2 | x
72 | COc1cc(NC(=O)CCS(=O)(=O)c2cc3c4c(c2)CCN4C(=O)CC3)cc(OC)c1 | 0.61 | x
73 | CCOC(=O)c1cnc(SCc2nc(-c3cccc(Cl)c3)oc2C)nc1N | 0.29 | x
74 | Cc1cc(N2CCOCC2)n2c(nc3ccccc32)c1C#N | -0.21 | -0.3
75 | CCOc1ccccc1C1C(C(=O)OC)=C(C)NC2=C1C(=O)CC(C)(C)C2 (stereo not drawn) | 0.37 | x
76 | Cc1ccc(S(=O)(=O)N2CCN(Cc3ccncc3)CC2)cc1 | x | -0.54
77 | Cc1nnc2c3ccccc3nc(NCCC3=CCCCC3)n12 | -0.12 | x
78 | Cn1cc(-c2cc3n(n2)CCC(=O)N3CC(=O)NCc2ccccn2)c2ccccc21 | 0.86 | x
79 | CCc1cc2c3c([nH]c2cc1S(=O)(=O)N(C)Cc1ccco1)CCCC3=O | -6.5 | x
80 | Cc1ccc2nc(-c3ccc(N=Cc4c(O)ccc5ccccc45)cc3)sc2c1 | x | -0.44
81 | CCNC(=O)c1c(NC(=O)c2cc(=O)c3cc(C)ccc3o2)sc2c1CCCC2 | 1.9 | -1.2
82 | COC(=O)c1cc(NC(=O)c2ccc(C)c([N+](=O)[O-])c2)cc(C(=O)OC)c1 | x | 2.2
83 | Cc1ccc(Nc2nc(-c3ccccc3F)no2)cc1C | 2.4 | x
84 | CCC(C(=O)O)n1ccc2cc(S(=O)(=O)N3CCCCC3)ccc21 (stereo not drawn) | -0.41 | 0.43
85 | COc1ccc(C2Oc3c(OC)cccc3C3CC(c4cc(OC)ccc4O)=NN32)c(OC)c1 (stereo not drawn) | -2.1 | -1.6
86 | COc1ccc(S(=O)(=O)Nc2ccc(F)cc2)cc1OC | 1.5 | -0.85
87 | O=c1cc(CSCc2ccc(Cl)cc2)[nH]c(=O)[nH]1 | x | -1.9
88 | COc1cccc(N2CC(O)=C(c3nc4ccccc4s3)C2=N)c1 | 0.63 | 0.12
89 | CCOC(=O)c1sc(N2C(=O)C(O)=C(C(=O)c3ccco3)C2c2cccc(Cl)c2)nc1C (stereo not drawn) | 1.6 | -1.8
90 | COc1ccc2[nH]c3c(=O)n(CCCCC(=O)N4CCN(C)CC4)c(=S)[nH]c3c2c1 | x | -3.9
91 | CCOC(=O)[C@@H]1CCNC[C@@H]1c1ccccc1 | x | -0.35
92 | CCN(CC)S(=O)(=O)c1ccc2c(c1)N(CC(=O)OC)C(=O)CS2 | -1.1 | x
93 | Cc1cccc(C2CC(c3ccc(Br)cc3)Nc3nc(N)nn32)c1 (stereo not drawn) | -0.15 | -1.3
94 | CCCCCSc1oc(-c2ccco2)nc1S(=O)(=O)c1ccc(F)cc1 | 1.4 | -0.05
95 | CCOC(=O)N1CCN(C(=O)c2c(O)c3cccc4c3n(c2=O)CC4)CC1 | -0.27 | x
96 | Cc1nn(S(=O)(=O)c2ccc(C(C)C)cc2)c(C)c1S(=O)(=O)N1CCCC1 | 1.3 | x
97 | COCCN=C1NS(=O)(=O)C(c2ccc(C)cc2)=C1C | -1.6 | -1.3
98 | CC(=O)N1c2ccc(S(=O)(=O)N3CCCC3)cc2CC1C(=O)NCCSCc1ccco1 (stereo not drawn) | 1.2 | x
99 | CC1CCCC(NC(=O)C2CCN(C(=O)N3CCOc4ccc(Cl)cc43)CC2)C1C (stereo not drawn) | 1.9 | x
100 | Cc1nc(CC(=O)Nc2sc3c(c2C#N)CCC(C)C3)cs1 (stereo not drawn) | 1 | 0.64
101 | O=C(NC1(O)C(=O)c2ccccc2C1=O)c1cccc2c1-c1ccccc1C2=O | x | -0.89
102 | O=C(CCc1nc2cccnc2n1Cc1cccs1)N1CCc2ccccc21 | -2.3 | -2.6
103 | O=C1CC(c2ccco2)Sc2ccccc2N1Cc1ccccc1 (stereo not drawn) | x | -1.2
104 | O=C(CCc1nc(-c2ccco2)no1)NCc1ccco1 | 0.28 | -0.24
105 | FC(F)(F)c1nc(N2CCOCC2)nc2c1CCCCC2 | x | 0.55
106 | Cc1ccc(-n2nnc(-c3nc(-c4ccccc4)no3)c2N)cc1 | 1.4 | -0.06
107 | CCSc1nnc(NC(=O)CSc2nc3c(c(=O)n2CCOC)SC(C)C3)s1 (stereo not drawn) | x | 0.17
108 | O=C(CSc1nc(-c2ccccc2)cs1)c1ccccc1 | 1.6 | 0.36
109 | O=C(NC1CCCCC1)c1cccn1-c1nnc(N2CCCC2)s1 | 0.37 | x
110 | O=C(CCCn1sc2ccccc2c1=O)NCCCN1CCOCC1 | 1.8 | -1.9
111 | COc1ccc2c(c1)c1nc3ccccc3nc1n2C | -0.32 | -0.25
112 | Cc1ccc(Nc2nc3ccccc3n3c(C)nnc23)c(C)c1 | 1.2 | -1.1
113 | C=CCOc1ccc(C(=O)N(Cc2ccc(OC)c(OC)c2)C2CCS(=O)(=O)C2)cc1 (stereo not drawn) | 1 | 0.34
